# SARS PLP yeast = qHTS of Yeast-based Assay for SARS-CoV PLP; AID 485353, 2010; 330,000 compounds, 0.19% hits; S. cerevisiae expressing SARS-CoV PLpro, growth rescue; control for the full effect not named in the record; Potency, µM (highest dose often 32.9 µM), without a hit: at the highest dose activity, positive = growth rescue; active means well fitted rising curve with a large enough effect; inconclusive means small, poorly fitted or top-dose-only effect; inactive means no such curve, though single readings can be large or run the other way; also: 0% is about no effect; nearly all actives have a fitted effect of over 55% in size; growth read by luminescence after 48 h
# Cruzain inh Det = qHTS Assay for Promiscuous and Specific Inhibitors of Cruzain (with detergent). purified cruzain, Z-FR-AMC fluorescence, 0.01% Triton. Potency, µM, for the others: max response, negative = inhibition, hits mostly inhibitors. 200,000 compounds, 0.43% hits. AID 1478, 2009;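 also: plate controls were neutral wells for no effect and buffer without enzyme for full effect; nearly all actives have a fitted effect of over 40% in size; top concentration of the series not given in the record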
# Target sequence (P25779 123-467 limits assumed): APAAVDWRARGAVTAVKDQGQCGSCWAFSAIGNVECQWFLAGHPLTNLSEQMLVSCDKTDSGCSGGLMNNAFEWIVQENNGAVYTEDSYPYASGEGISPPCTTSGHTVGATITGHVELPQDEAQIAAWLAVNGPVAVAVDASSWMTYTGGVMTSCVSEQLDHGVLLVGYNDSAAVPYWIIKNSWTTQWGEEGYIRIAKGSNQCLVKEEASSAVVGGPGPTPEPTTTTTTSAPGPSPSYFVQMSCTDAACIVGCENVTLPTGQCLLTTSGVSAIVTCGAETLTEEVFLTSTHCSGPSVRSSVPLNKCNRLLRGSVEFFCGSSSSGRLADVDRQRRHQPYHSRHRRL
#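 Cruzain (1.5 nM) preincubated 15 min at RT with compound in 100 mM sodium acetate pH 5.5, 5 mM DTT, 0.01% Triton X-100. Reaction started with 2 uM Z-FR-AMC; AMC fluorescence (ex 360/em 450 nm) change over 60 s gave rate.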
# RE007 growth inh = qHTS Assay for Inhibitors of the HIV-1 protein Vpr; S. pombe RE007 Vpr strain, BacTiter-Glo ATP luminescence, 24 h; control for the full effect not named in the record; Potency, µM (doses to about 92.2 µM), for inactives: at the highest dose activity change, negative = less growth; 360,000 compounds, 0.21% hits; AID 651644, 2012; active = well fitted falling curve with a large enough effect; inconclusive = small, poorly fitted or top-dose-only effect; inactive = no such curve, though single readings can be large or run the other way;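 also: % is scaled to controls: 0 for no effect and ±100 for the full control effect; nearly all actives have a fitted effect of over 50% in size; the assay follows cell death caused by Vpr and the record does not say whether a fall means rescue or toxicity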
#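 Fission yeast RE007 carrying one integrated HIV-1 vpr copy, seeded at OD 0.01 in PMG+AL medium with 23 nL pinned compound. Grown 24 h at 30 degrees; viability read by BacTiter-Glo luminescence after 5 min.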
# StopGo reporter = High Throughput Screening for Foot and Mouth Disease Virus Antivirals. 410,000 compounds, 1.2% hits. human cells with a luciferase reporter of 2A StopGo recoding; control for the full effect not named in the record. Potency, µM (doses to about 57.9 µM), without a hit: at the top dose signal change, negative = less light; active = well fitted falling curve with a large enough effect; inconclusive = small, poorly fitted or top-dose-only effect; inactive = no such curve, though single readings can be large or run the other way; tested in HEK293T cells; also: % is scaled to controls: 0 for no effect and ±100 for the full control effect; nearly all actives have a fitted effect of over 45% in size; luciferase light after 4 h
# Cruzain noTriton = qHTS Assay for Promiscuous and Specific Inhibitors of Cruzain (without detergent); Cruzipain (Trypanosoma cruzi), P25779; purified cruzain, Z-FR-AMC fluorescence, no detergent; 200,000 compounds, 2.3% hits; AID 1476, 2009; Potency, µM, without a hit: max response, negative = inhibition, hits mostly inhibitors;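 also: plate controls were enzyme without inhibitor for no effect and buffer without enzyme for full effect; nearly all actives have a fitted effect of over 40% in size; top concentration of the series not given in the record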
#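 Purified cruzain at 1.5 nM, pre-incubated 15 min with compound at room temperature in 100 mM sodium acetate pH 5.5, 5 mM DTT, 0.00005% Triton X-100. Reaction started with 2 uM Z-FR-AMC; AMC fluorescence increase over 60 s gives rate.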
# Marburg entry inh = qHTS for inhibitors of binding or entry into cells for Marburg Virus; AID 540276, 2011; Marburg virus pseudotyped entry inhibition, cell reporter; control for the full effect not named in the record; about a third of the inactives were read at about 46 µM; 300,000 compounds, 1.8% hits; Potency, µM (series often up to 37.8 µM), for inactives: at the highest dose activity change, negative = inhibition, hits mostly inhibitors; active = well fitted inhibition curve with a large enough effect; inconclusive = small, poorly fitted or top-dose-only effect, or effect the other way; inactive = flat fitted curve, though single readings scatter; tested in HEK293 cells; about a fifth of its hits are not listed in these tables; also: % is scaled to controls: 0 for no effect and ±100 for the full control effect; luciferase read-out
# LASV entry inh = qHTS for Inhibitors of binding or entry into cells for Lassa Virus; Potency, µM (top dose mostly 37.9 µM), inactives show at the top dose activity change, negative = inhibition, hits mostly inhibitors; Lassa virus pseudotype entry inhibition, cell reporter; control for the full effect not named in the record; AID 540256, 2011; 300,000 compounds, 1.2% hits; active means well fitted inhibition curve with a large enough effect; inconclusive means small, poorly fitted or top-dose-only effect, or effect the other way; inactive means flat fitted curve, though single readings scatter; tested in HEK293 cells; also: % is scaled to controls: 0 for no effect and ±100 for the full control effect; nearly all actives have a fitted effect of over 50% in size; luciferase read-out
# NS1 function inh = qHTS Assay for Inhibitors of Influenza NS1 Protein Function. S. cerevisiae slowed by influenza A NS1, growth recovery by OD600. Potency, µM (top dose mostly 46.1 µM), for the others: at the highest dose activity, positive = more growth. 270,000 compounds, 0.4% hits. AID 2326, 2010; active means well fitted rising curve with a large enough effect; inconclusive means small, poorly fitted or top-dose-only effect; inactive means no such curve, though single readings can be large or run the other way; also: nearly all actives have a fitted effect of over 50% in size
#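 Compounds were scored for reversing the slow growth caused by influenza A NS1 in S. cerevisiae, measured by optical density at 600 nm. Assay medium contained 2% galactose at pH 6.0; NS1-free yeast of the same strain were the positive control.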
# Active calls of the source: *; ? = inconclusive; . = no result given; [ ] = dose if it differs, or a comment. Unless noted, calls follow the shape of the dose curve; as a rule, active = well fitted curve in the direction sought with a large enough effect; inconclusive = small, poorly fitted or top-dose-only effect, or another doubt; inactive = no such curve, though single readings can be large; an effect the other way counts as inactive or inconclusive. Potency is read from the fitted curve at half-maximal effect.
# The opening 8 records as a preview:
structure | SARS PLP yeast | Cruzain inh Det | RE007 growth inh | StopGo reporter | Cruzain noTriton | Marburg entry inh | LASV entry inh | NS1 function inh
COc1ccccc1N(C(=O)c1ccncc1)c1nc(-c2ccc([N+](=O)[O-])cc2)cs1 | -35% | -3.2% | -5% | -26% | -3% | ? | ? | 18%
NS(=O)(=O)c1ccc(NS(=O)(=O)c2ccc(NC(=O)C3CC3)cc2)cc1 | -3% | . | 3% | 4% | . | . | . | 13%
O=C1C=C(N2CCN(c3ccccn3)CC2)C(=O)c2c(O)ccc(O)c21 | . | -9.3% | -12% | 0% | -6% | ? | ? | -8%
CCn1nc(C)c(CNC(=O)CC2C(=O)NCCN2Cc2ccc(C)o2)c1C (stereo unspecified) | 0% | . | 7% | -6% | . | . | . | 2%
CCN(CC)CC(=O)NN=C(c1ccccc1)c1ccccc1 | -2% | 5.8% | 1% | -12% | 6% | ? | -15% | -3%
Cc1nc2ccc(S(=O)(=O)NCC(=O)Nc3ccc(F)cc3)cc2s1 | 0% | . | 7% | -9% | . | . | . | -1%
O=C(COc1ccccc1[N+](=O)[O-])OCC(=O)c1ccc(Br)s1 | -24% | . | -6% | 56%[activator] | . | -11%[46.1 µM] | 8%[46.1 µM] | .
Cc1ccc(/C=N/Nc2ncc(Cl)cc2Cl)s1 | 0% | -0.7% | 5% | -17% | ? | ? | ? | -150%

# All compounds of this part, from the start:
structure | SARS PLP yeast | Cruzain inh Det | RE007 growth inh | StopGo reporter | Cruzain noTriton | Marburg entry inh | LASV entry inh | NS1 function inh
COc1ccccc1N(C(=O)c1ccncc1)c1nc(-c2ccc([N+](=O)[O-])cc2)cs1 | -35% | -3.2% | -5% | -26% | -3% | ? | ? | 18%
NS(=O)(=O)c1ccc(NS(=O)(=O)c2ccc(NC(=O)C3CC3)cc2)cc1 | -3% | . | 3% | 4% | . | . | . | 13%
O=C1C=C(N2CCN(c3ccccn3)CC2)C(=O)c2c(O)ccc(O)c21 | . | -9.3% | -12% | 0% | -6% | ? | ? | -8%
CCn1nc(C)c(CNC(=O)CC2C(=O)NCCN2Cc2ccc(C)o2)c1C (stereo unspecified) | 0% | . | 7% | -6% | . | . | . | 2%
CCN(CC)CC(=O)NN=C(c1ccccc1)c1ccccc1 | -2% | 5.8% | 1% | -12% | 6% | ? | -15% | -3%
Cc1nc2ccc(S(=O)(=O)NCC(=O)Nc3ccc(F)cc3)cc2s1 | 0% | . | 7% | -9% | . | . | . | -1%
O=C(COc1ccccc1[N+](=O)[O-])OCC(=O)c1ccc(Br)s1 | -24% | . | -6% | 56%[activator] | . | -11%[46.1 µM] | 8%[46.1 µM] | .
Cc1ccc(/C=N/Nc2ncc(Cl)cc2Cl)s1 | 0% | -0.7% | 5% | -17% | ? | ? | ? | -150%
CC(CN1CCNCC1)(NS(=O)(=O)c1ccccc1)c1ccccc1 (stereo unspecified) | 2% | 3.6% | -8% | -7% | 10% | 11µM* | -22% | 5%
Cc1ccc(N(C)S(=O)(=O)c2ccc(-c3ccc(=O)[nH]n3)s2)cc1C | 2% | . | 9% | -10% | . | . | . | 15%
CCOC(=O)c1ccc(COC(=O)c2ccc3c(c2)-c2ccccc2C3=O)cc1 | ? | -0.6% | 10% | -27% | -7% | 25% | ? | 6%
COc1ccc(CC2(C)OC(c3ccc(Cl)cc3)=NN2C(C)=O)cc1 (stereo unspecified) | -69% | -9.2% | 14% | 0% | 2% | ? | ? | -27%
COc1cccc(-c2nc(Cc3ccc(OC)c(OC)c3)no2)c1 | -2% | -5.5% | 6% | . | ? | 0% | 5% | 4%
COc1ccc(C2=NO[C@@H]3C(=O)N(C4CCCCC4)C(=O)[C@H]23)cc1OC | 3% | 0.0% | 0% | ? | 28% | 11% | 5% | -1%
CCNc1nc(NCC)nc(N/N=C/c2ccc([N+](=O)[O-])o2)n1 | 15% | -6.5% | -29% | -19% | -1% | ? | -17% | 4%
COc1ccc(OC)c(S(=O)(=O)N2Cc3ccccc3CC2C(=O)Nc2ccc(C(C)=O)cc2)c1 (stereo unspecified) | . | -5.2% | . | -1% | -17% | ? | -20%[46.1 µM] | .
COc1cccc(C=CC(=O)C=CC=Cc2ccccc2)c1 | . | . | -11% | 2% | . | ? | 8%[46.1 µM] | .
Cc1sc(-n2c(C)cc(/C=C3\SC(=S)NC3=O)c2C)c(C#N)c1C | -9% | -0.5% | 4% | 14% | -5% | ? | ? | -23%
O=C1NCCCC1C(=O)N/N=C/c1ccc(Cl)cc1 (stereo unspecified) | 0% | . | 1% | 27% | . | 16% | ? | 2%
CCCOC(=O)/C(=C\c1ccc([N+](=O)[O-])o1)NC(=O)c1ccccc1 | -17% | -5.5% | 2% | -1% | -19% | -7% | -5% | -10%
COc1ccccc1-n1cnnc1SC1CCOC1=O (stereo unspecified) | 0% | 4.1% | 14% | -1% | 7% | 1% | -2% | 0%
Cc1ccc(CSc2ncnc3c2cnn3Cc2ccccc2)cc1C | 0% | -0.5% | 17% | -15% | -8% | ? | ? | -2%
O=C(Nc1ccc2oc(=O)ccc2c1)c1ccc(-c2ccc(Cl)cc2)o1 | -6% | -1.1% | -11% | -15% | -27% | ? | -3% | 1%
CCCCN(C)C1=CC2=CC(=C(C#N)C#N)CCC2CC1 (stereo unspecified) | -4% | -13% | -7% | -14% | -2% | 0% | -4% | 8%
CCOc1ccc(NC(=S)NN2C(C)CCCC2C)cc1 (stereo unspecified) | ? | -0.9% | -3% | -5% | -19% | -4% | -19% | 14%
COc1ccc(/C=C2\SC(=O)N(CCNC(=O)C3=COCCO3)C2=O)cc1 | . | . | -25% | 38%[activator] | . | 11% | 4% | .
CC/C(=N\NC(=S)Nc1ccc(OC)cc1)c1ccc(OC(F)F)cc1 | -4% | -15% | -7% | -5% | 10% | 7% | ? | -5%
O=C(Nc1cccc(S(=O)(=O)N2CCCCC2)c1)c1ccc2c(c1)OCO2 | -9% | -3.4% | 27% | ? | -2% | ? | -19% | -31%
CCN(CC)S(=O)(=O)c1ccc(NC(=O)CCC2CCCCC2)cc1 | -5% | -7.5% | . | 12% | -5% | 1% | . | -8%
O=c1cc(NCc2ccco2)[nH]c(=O)n1-c1ccc(Br)cc1 | 20% | 0.3% | 0% | . | -4% | -2% | -21% | 12%

# Continued.
# Second line of a record – SARS PLP yeast	Cruzain inh Det	RE007 growth inh	StopGo reporter	Cruzain noTriton	Marburg entry inh	LASV entry inh	NS1 function inh
S=c1[nH]nc([C@@H]2C[C@H]2c2ccccc2)n1-c1ccccc1
 : 7%	-1.9%	-20%	-7%	-10%	-1%	-21%	5%
CN(C)C1CCN(C(=O)c2cccc(OC3CCN(S(=O)(=O)N(C)C)CC3)c2)C1 (stereo unspecified)
 : 1%	.	-13%	-8%	.	1%	15%	25%
Cc1cc(S(=O)(=O)NC2CCCCC2)ccc1OCC(=O)NCC1CCCO1 (stereo unspecified)
 : -1%	.	-14%	24%	.	16%	22%[46.1 µM]	.
CCN(CC)CCCN=Cc1c(O)n(-c2ccccc2F)c(=O)[nH]c1=O
 : -3%	1.0%	2%	-21%	-3%	-2%	-12%	-9%
CCOc1ccc(N2CC(NC(=O)C3CC3)CC2=O)cc1 (stereo unspecified)
 : .	1.5%	.	-9%	13%	.	14%[46.1 µM]	.
Cc1nnc(-c2cnn(C)c2N)n1Cc1ccc2c(c1)OCO2
 : 0%	.	-15%	16%	.	18%[46.1 µM]	8%[46.1 µM]	7%
COCCNC(=O)C12CC3CC(C1)CC(c1ccccc1)(C3)C2
 : 1%	.	17%	-14%	.	-13%[46.1 µM]	10%[46.1 µM]	-3%
CC1CCCC(C)N1CCCNC(=O)C1CCCN(c2ncnc3c2nc2n3CCCCC2)C1 (stereo unspecified)
 : 1%	.	5%	-1%	.	?	?	3%
COc1ccc(S(=O)(=O)N2CCN(C(=O)NCc3ccc(OC)c(OC)c3)CC2)cc1
 : 3%	.	-3%	1%	.	9%	-3%	-1%
C[C@H](NC(=O)c1ccccc1Cl)C(=O)OCc1cn2cc(Cl)ccc2n1
 : -20%	.	-15%	5%	.	-9%	4%	.
CC[C@@]12C(=O)N(c3cccc(C)c3)C(=O)N1[C@H](c1ccc(OC)cc1)[C@@H]1C(=O)N(C(C)(C)C)C(=O)[C@@H]12
 : 3%	.	6%	1%	.	.	.	2%
O=C(CCn1c(=S)oc2ccccc21)Nc1cc([N+](=O)[O-])ccc1F
 : 0%	.	-1%	-29%	.	.	.	2%
O=C(OCc1cc2ccccc2[nH]c1=O)c1ccncc1
 : -10%	1.7%	10%	16%	-6%	1%	-14%	-2%
c1ccc2c(CCNc3ncnc4nc[nH]c34)c[nH]c2c1
 : -11%	-1.2%	-7%	?	-10%	-45%	?	-39%
COCCN1C2=C(C(=O)CC(C)(C)C2)C(c2ccc(OC)c(OC)c2)C2=C1CC(C)(C)CC2=O
 : 4%	.	3%	26%	.	0%	7%	-18%
Cc1cccc(N2CCN(C(=O)c3cc(S(=O)(=O)N4CCOCC4)cn3C)CC2)c1C
 : -3%	.	-17%	-12%	.	.	.	-21%
